D2 PAM: potentiates the human D2 dopamine receptor allosterically. DiscoveRx D2 beta-arrestin cells, luminescence, 90 min; 100% = 57 uM dopamine signal. potentiation, % (test concentration not listed). 0.23% of 360,000 active; active = potentiation of 50% or more; inconclusive = 30% to 50%; inactive = 30% or less;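 note: compound concentration not given in the record; tested on top of an EC20 dose of dopamine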
Target sequence (P14416 whole entry, looked up): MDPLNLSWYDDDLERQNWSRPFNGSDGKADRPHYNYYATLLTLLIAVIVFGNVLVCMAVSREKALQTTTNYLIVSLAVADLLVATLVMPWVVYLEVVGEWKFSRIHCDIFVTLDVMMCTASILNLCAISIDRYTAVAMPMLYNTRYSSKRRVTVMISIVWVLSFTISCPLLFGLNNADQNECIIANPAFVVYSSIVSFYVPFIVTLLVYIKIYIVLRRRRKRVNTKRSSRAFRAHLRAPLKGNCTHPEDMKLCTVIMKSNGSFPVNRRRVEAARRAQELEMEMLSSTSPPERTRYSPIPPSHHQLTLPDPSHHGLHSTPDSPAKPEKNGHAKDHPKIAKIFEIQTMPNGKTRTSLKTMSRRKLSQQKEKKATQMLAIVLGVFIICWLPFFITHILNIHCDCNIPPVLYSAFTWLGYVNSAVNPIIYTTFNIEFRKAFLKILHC
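PathHunter beta-arrestin assay in DiscoveRx D2 cells. Compounds were added with an EC20 of dopamine (50 nM final) for 90 min at 37 deg C. Luminescence was read 1 h after detection reagent, with 57 uM dopamine as the EC100 control.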
gsp antag: antagonists of gsp mutant (McCune-Albright syndrome) | gsp-mutant cells, cAMP HTRF, 30 min; control for the full effect not named in the record | Potency, µM (series often up to 76.9 µM), for the others: top-dose activity change, negative = inhibition, actives largely listed as inhibitors | 0.4% of 340,000 active; active = falling curve of any shape with a large fitted effect; inconclusive = falling curve, mostly with a smaller effect; inactive = flat or rising curve; cell line not stated here;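 note: intracellular cAMP measured with PDE inhibitor Ro 20-1724 present during compound exposure; potency is the fitted concentration of half-maximal effect; % is set by controls: 0 for no effect and ±100 for the full control effect; nearly all actives have a fitted effect of over 65% in size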
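Cells in G418 medium, seeded 16-24 h, 37C; buffer exchange to DPBS + 1 mM CaCl2, 0.5 mM MgCl2, 0.05% BSA; cpds in DMSO + […] (300 uM stock), 30 min 37C; HTRF cAMP detection.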
D2 agonist: human D2 receptor agonism in beta-arrestin assay. activation, % (no concentration beside the values). 0.084% of 360,000 active. DiscoveRx PathHunter D2 beta-arrestin, luminescence, 90 min; 100% = 57 uM dopamine signal. P14416. AID 624465; in the data active = activation above about 40%; inconclusive = about 15% to 40%; inactive = below about 15%; note: compound concentration not given in the record; the text of the record calls up to 30% inactive
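Agonist mode: compounds alone added to overnight-plated D2 PathHunter cells for 90 min at 37 C, with 57 uM final dopamine (EC100) defining full response. Beta-arrestin recruitment detected by chemiluminescent reagent, read after 1 h at ambient temperature.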
Six1-Eya2 blk: blocks human Six1 binding to Eya2. 0.56% of 360,000 active. Q15475+O00167. activity change, % (concentration not given with the values). AlphaScreen GST-Six1/His-Eya2 binding, biochemical; hits give low values; control for the full effect not named in the record. AID 651725; in the data active = activity change below about -65%; inconclusive = about -30% to -65%; inactive = above about -30%; note: % is set by controls: 0 for no effect and ±100 for the full control effect
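Homogeneous AlphaScreen proximity assay pairing GST-Six1 with His-tagged Eya2 (added as 5X mix: 250 nM and 500 nM) in 50 mM Tris pH 8.0, 300 mM NaCl, 1 mM TCEP. Glutathione donor and nickel acceptor beads; 1 h, 37 °C, dark.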
CtBP-E1A blk: CtBP/E1A binding inhibition. AlphaScreen GST-E1A/His-CtBP binding, 1536-well; hits give low values; control for the full effect not named in the record. activity change, % (no concentration beside the values). 0.49% of 340,000 active. AID 651724; in the data active means activity change below about -65%; inconclusive means about -30% to -65%; inactive means above about -30%; note: % is set by controls: 0 for no effect and ±100 for the full control effect; compound concentration not given in the record
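In 5 uL wells, 23 nL compound meets equimolar GST-E1A and His-CtBP (5X stock 125 nM each) for 2 h, 37 °C. Beads (5X, 50 ug/mL) then 1 h, 37 °C, dark.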
gsp agonist: activates gsp, the McCune-Albright syndrome mutation; gsp mutant cells, cAMP HTRF, 30 min; control for the full effect not named in the record; Potency, µM (titrated, usually from 76.9 µM), for inactives: top-dose activation (cAMP increase), actives largely listed as activators; 0.13% of 340,000 active; AID 624287; active = well fitted activation curve with a large enough effect; inconclusive = small, poorly fitted or top-dose-only effect, or another doubt; inactive = no such curve, though single readings can be large or run the other way; cell line not stated here;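 note: phosphodiesterase inhibitor Ro 20-1724 added with compounds to block cAMP breakdown; potency is the fitted concentration of half-maximal effect; nearly all actives have a fitted effect of over 60% in size; about a fifth of the inactives were tested at one dose only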
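Cells in DMEM/10% FBS with G418 were pretreated with compounds in DMSO plus […] (300 uM stock) for 30 min at 37C. cAMP was measured by HTRF (cAMP-d2 plus anti-cAMP antibody-K) after 30 min at room temperature.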
The depositor's hits bear a star; [ ] = remark or other dose. Compounds as they come. About 1.4% of those tested had a hit in this group.

`Cc1cccc(CN2CCC(n3nccc3NC(=O)CCCc3ccccc3)CC2)c1` gave D2 PAM -26.6, D2 agonist -2.1, Six1-Eya2 blk -7.5, CtBP-E1A blk 3.8 and gsp agonist -49.9%[inhibitor].
For COc1ccc(-c2csc3ncnc(N4CCN(c5cccc(C)c5C)CC4)c23)cc1 the results were D2 PAM -4.5, gsp antag 9.6%, D2 agonist 1.1, Six1-Eya2 blk -11.6, CtBP-E1A blk 11.4 and gsp agonist 2.1%[15.4 µM].
For CC12C=CC(=O)C=C1C(F)CC1C3CCC(O)(C(=O)CO)C3(C)CC(O)C12F (configuration not stated) the results were D2 PAM -9.1, gsp antag -2.4%, D2 agonist -0.8, Six1-Eya2 blk 4.7, CtBP-E1A blk -1.8 and gsp agonist 19.9%.
Cc1ccc2[nH]cc(C(=O)CN3CCN(c4ccccn4)CC3)c2c1 was read as D2 PAM -41.9, gsp antag -1.2%, D2 agonist 1.9, Six1-Eya2 blk -8.6, CtBP-E1A blk -6.5 and gsp agonist 23.3%.
For COC(=O)c1cn(N(C)c2ncc(C(F)(F)F)cc2Cl)c(=O)c2ccccc12 the results were D2 PAM -1.9, gsp antag 1.0%, D2 agonist -0.4, Six1-Eya2 blk 7.4, CtBP-E1A blk -0.9 and gsp agonist 33.9%.
Screening CCCC(=O)Nc1nc2ccc(C(=O)OCC)cc2s1 returned D2 PAM -3.3, gsp antag -1.2%, D2 agonist 1.3, Six1-Eya2 blk 1.9, CtBP-E1A blk 6.4 and gsp agonist -23.2%.
CC1Cc2ccccc2N1C(=O)Cn1nc(C(=O)O)c2ccccc2c1=O (configuration not stated) was read as D2 PAM -1.5, gsp antag -2.8%, D2 agonist -4.2, Six1-Eya2 blk -0.2, CtBP-E1A blk 0.4 and gsp agonist -10.0%.
For CCOc1ccc2c(=O)c(-c3ccc4c(c3)OCCCO4)c(C)oc2c1 the results were D2 PAM -23.7, gsp antag 2.7%, D2 agonist -0.8, Six1-Eya2 blk 6.6, CtBP-E1A blk -3.1 and gsp agonist -14.7%.
For COc1ccc(-c2nn(-c3ccccc3)cc2/C=N/N2C(=O)CSC2=S)cc1 the results were D2 PAM -1.5, gsp antag -3.3%, D2 agonist -1.6, Six1-Eya2 blk -12.9, CtBP-E1A blk inconclusive and gsp agonist 1.3%.
`Cc1cccc(NC(=O)COC(=O)c2ccc(S(=O)(=O)N3CCCCCC3)cc2)c1` gave D2 PAM -4.9, gsp antag -3.8%, D2 agonist -0.4, Six1-Eya2 blk 11.0, CtBP-E1A blk -0.8 and gsp agonist -57.4%[inhibitor].
CC(NS(=O)(=O)c1ccc(Br)cc1)C(=O)NCc1ccco1 (configuration not stated) was read as D2 PAM 0.3, gsp antag -4.8%, D2 agonist 2.3, Six1-Eya2 blk -14.7, CtBP-E1A blk -7.1 and gsp agonist 7.5%.
CC1=C(C(=O)N(C)C)CC(CC(=O)NC(c2ccccc2)c2ccccc2)C(=O)N1CCCN1CCCC1=O (configuration not stated) was read as D2 PAM -2.8, D2 agonist -9.9, Six1-Eya2 blk 1.8, CtBP-E1A blk 6.4 and gsp agonist -47.1%[inhibitor].
`COc1ccc([N+](=O)[O-])cc1NC(=O)COC(=O)/C=C/c1ccco1` gave D2 PAM -16.6, gsp antag 0.5%, D2 agonist -1.9, Six1-Eya2 blk -9.7, CtBP-E1A blk -6.4 and gsp agonist -1.0%.
c1ccc(C2CSc3ccccc3N2)cc1 (configuration not stated) was read as D2 PAM -12.0, gsp antag 2.4%, D2 agonist -9.1, Six1-Eya2 blk -4.0 and gsp agonist -5.8%.
CCC(C)[C@H](NC(=O)NCc1ccc(F)cc1)C(=O)O (some centres not stated) was read as D2 PAM -4.4, gsp antag 4.6%, D2 agonist 1.7, Six1-Eya2 blk 4.4 and gsp agonist 3.5%.
`Cc1ccc(S(=O)(=O)N2[C@@H](c3ccc(Cl)cc3)C(C(=O)O)=C[C@H]2CC2CCCC2)cc1` gave D2 PAM -0.3, gsp antag -5.2%, D2 agonist -0.1, Six1-Eya2 blk -3.7 and CtBP-E1A blk -23.3.
For CC(=O)c1c(C(C)=O)c(C)n(-c2nc(-c3ccc(Br)cc3)c(C)s2)c1C the results were D2 PAM -13.6, gsp antag inconclusive, D2 agonist -0.4, Six1-Eya2 blk 0.0, CtBP-E1A blk -4.0 and gsp agonist 19.8%.
O=C(NC(Cc1ccccc1)C(=O)N1CCCC1C(=O)O)c1ccccc1 (configuration not stated) was read as D2 PAM -11.1, gsp antag -12.8%, D2 agonist -2.4, Six1-Eya2 blk -1.2, CtBP-E1A blk -1.6 and gsp agonist -34.5%[inhibitor].
`O=C(NCC1CCCO1)c1cc(S(=O)(=O)N2CCCCC2)ccc1Cl` (configuration not stated) gave D2 PAM -10.7, gsp antag -4.9%, D2 agonist -0.9, Six1-Eya2 blk 8.0 and gsp agonist -46.4%[inhibitor].
For CCc1cccc(NC(=O)COC(=O)CSc2ccc(C)cc2)c1 the results were D2 PAM -19.4, D2 agonist 3.0, Six1-Eya2 blk 20.5, CtBP-E1A blk 2.2 and gsp agonist -111.7%[inhibitor].

Continued, starting with the last 2 of the part before.
`O=C(NCC1CCCO1)c1cc(S(=O)(=O)N2CCCCC2)ccc1Cl` (configuration not stated) gave D2 PAM -10.7, gsp antag -4.9%, D2 agonist -0.9, Six1-Eya2 blk 8.0 and gsp agonist -46.4%[inhibitor].
For CCc1cccc(NC(=O)COC(=O)CSc2ccc(C)cc2)c1 the results were D2 PAM -19.4, D2 agonist 3.0, Six1-Eya2 blk 20.5, CtBP-E1A blk 2.2 and gsp agonist -111.7%[inhibitor].
`CN(NS(C)(=O)=O)c1ncc(C(F)(F)F)cc1Cl` gave D2 PAM -5.6, gsp antag 8.0%, D2 agonist 1.2, Six1-Eya2 blk inconclusive, CtBP-E1A blk inconclusive and gsp agonist 16.5%.
`COc1cccc(N=Cc2c(O)c3ccccc3oc2=O)c1` gave D2 PAM -8.7, gsp antag -23.0%, D2 agonist -2.4, Six1-Eya2 blk 2.1, CtBP-E1A blk -10.2 and gsp agonist -33.5%[inhibitor].
COc1ccc(OCc2cccc(C(=O)Nn3cc([N+](=O)[O-])cn3)c2)cc1 was read as D2 PAM -8.8, gsp antag inconclusive, D2 agonist -4.8, Six1-Eya2 blk -1.3, CtBP-E1A blk -2.0 and gsp agonist -2.3%.
`CC(OC(=O)CCCN=C1NS(=O)(=O)c2ccccc21)C(=O)Nc1ccc(F)c(F)c1F` (configuration not stated) gave D2 PAM -20.1, gsp antag 0.0%, D2 agonist -4.4, Six1-Eya2 blk -1.3, CtBP-E1A blk 6.4 and gsp agonist -40.7%[inhibitor].
`Cc1nc2ccccc2c(=O)n1-c1cccc(NC(=O)c2cccs2)c1` gave D2 PAM 19.4, gsp antag 9.4%, D2 agonist -0.8, Six1-Eya2 blk -10.3, CtBP-E1A blk -4.9 and gsp agonist -11.9%[15.4 µM].
COc1cccc(/C=C(\C#N)C(=O)NC2CCS(=O)(=O)C2)c1 (configuration not stated) was read as D2 PAM -11.4, gsp antag 20.9%, D2 agonist -1.6, Six1-Eya2 blk -5.8, CtBP-E1A blk -2.0 and gsp agonist -2.5%.
`COc1ccc(CNC(=O)c2ccccc2NC(=O)C2=CSCCO2)c(OC)c1` gave D2 PAM 12.9, gsp antag -19.3%, D2 agonist 9.7, Six1-Eya2 blk -11.6, CtBP-E1A blk -11.1 and gsp agonist 40.4%.
Screening Cc1ccccc1C(=O)NCc1nnc(SCC(=O)N2c3ccccc3Sc3ccccc32)n1C returned D2 PAM -6.6, gsp antag -3.5%, D2 agonist -0.5, Six1-Eya2 blk -19.5, CtBP-E1A blk inconclusive and gsp agonist -10.7%.
For CN1C[C@@H](CO)O[C@@H](n2cnc3c(N4CCN(CCO)CC4)ncnc32)C1 the results were D2 PAM -7.0, D2 agonist -6.5, Six1-Eya2 blk -6.7 and CtBP-E1A blk 1.7.
For CC(/C=C/c1ccco1)=N/NC(=O)C1COc2ccccc2O1 (configuration not stated) the results were D2 PAM -19.1, gsp antag -3.8%, D2 agonist -6.2, Six1-Eya2 blk -2.4 and gsp agonist 12.7%.
For CCOC(=O)c1cc2cc3ccccc3cc2[nH]1 the results were D2 PAM 0.5, gsp antag 0.9%, D2 agonist -1.6, Six1-Eya2 blk 26.6, CtBP-E1A blk 34.8 and gsp agonist 1.6%.
Screening O=C(Nc1ccccc1)/C(=C\c1ccccc1)NC(=O)c1ccco1 returned D2 PAM -8.8, gsp antag 6.6%, D2 agonist 8.0, Six1-Eya2 blk 4.1, CtBP-E1A blk 2.0 and gsp agonist 1.1%[15.4 µM].
O=S(=O)(c1ccc(SCCO)nc1)N1CCOCC1 was read as D2 PAM -4.4, gsp antag 7.7%, D2 agonist -1.8, Six1-Eya2 blk -1.0 and gsp agonist 22.1%.
`CCCNC(=S)NNC(=O)c1cc(-c2cccnc2)nc2ccccc12` gave D2 PAM -12.9, gsp antag -10.6%, D2 agonist -7.7, Six1-Eya2 blk -1.5, CtBP-E1A blk -13.1 and gsp agonist inconclusive.
Screening COc1cccc(/C=C/C(=O)Nc2ccc(C(=O)Nc3cccc(S(N)(=O)=O)c3)cc2)c1OC returned D2 PAM -18.4, gsp antag -18.0%, D2 agonist 0.2, Six1-Eya2 blk -14.3, CtBP-E1A blk -9.7 and gsp agonist 0.4%[15.4 µM].
Cc1ccccc1OC(C)C(=O)Nc1ccc2c(c1)OCO2 (configuration not stated) was read as D2 PAM -13.0, gsp antag -2.5%, D2 agonist -2.5, Six1-Eya2 blk -4.1, CtBP-E1A blk -27.9 and gsp agonist 29.3%.
For Nc1[nH]nc2nc3ccccc3cc12 the results were D2 PAM -3.9, gsp antag -38.8%, D2 agonist -3.5, Six1-Eya2 blk 1.1, CtBP-E1A blk -4.7 and gsp agonist 15.2%[15.4 µM].
For CCOC(=O)N1CCC(NC(=O)C(CC(C)C)NC(=O)C2CCC(C)CC2)CC1 (configuration not stated) the results were D2 PAM -2.5, gsp antag -1.2%, D2 agonist -3.3, Six1-Eya2 blk 4.1, CtBP-E1A blk 6.0 and gsp agonist 0.6%.
Screening CCCC(=O)N1CCOCC1c1cc(C(=O)Nc2ccccc2)no1 (configuration not stated) returned D2 PAM -2.4, D2 agonist 7.5, Six1-Eya2 blk 5.8 and CtBP-E1A blk 9.1.
Cc1ccc(CNC(=O)CCCc2cn(C)c3ccccc23)cc1 was read as D2 PAM -10.4, gsp antag -13.9%, D2 agonist -10.4, Six1-Eya2 blk -4.7 and gsp agonist -0.6%.
Screening Cc1ccc(N)cc1O returned D2 PAM 24.9, gsp antag -8.4%, D2 agonist 2.5, Six1-Eya2 blk -2.4 and CtBP-E1A blk -1.2.
Screening COc1ccc(CN2CCC(C(=O)NC(C)c3cccc4ccccc34)CC2)cc1 (configuration not stated) returned D2 PAM -18.7, D2 agonist -7.2, Six1-Eya2 blk 2.9 and CtBP-E1A blk -2.9.
Screening COc1cnc(SCc2ccc(Cl)cc2)nc1Cl returned D2 PAM -2.7, gsp antag 0.2%, D2 agonist -2.7, Six1-Eya2 blk 34.5, CtBP-E1A blk 40.9 and gsp agonist -5.1%.

Screening data from PubChem.
